# Bioassay records as filed in PubChem BioAssay.
# GIV-Gai inh = inhibitors of GIV peptide binding to Galpha-i3, primary screen, biochemical, fluorescence polarization, FITC-GIV GBA peptide, rat Galphai3. 90 min; stronger effect = lower value; scaled: aluminum fluoride 0%, vehicle 100%. percent of control (FP), % (test concentration not listed). 0.42% of 210,000 active;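 active = replicate mean at 85% of control or lower, very high polarization wells dropped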;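 also: wells of about 15 µL received 100 nL stock; the first replicate is given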
# Target sequence (P08753 whole entry, looked up): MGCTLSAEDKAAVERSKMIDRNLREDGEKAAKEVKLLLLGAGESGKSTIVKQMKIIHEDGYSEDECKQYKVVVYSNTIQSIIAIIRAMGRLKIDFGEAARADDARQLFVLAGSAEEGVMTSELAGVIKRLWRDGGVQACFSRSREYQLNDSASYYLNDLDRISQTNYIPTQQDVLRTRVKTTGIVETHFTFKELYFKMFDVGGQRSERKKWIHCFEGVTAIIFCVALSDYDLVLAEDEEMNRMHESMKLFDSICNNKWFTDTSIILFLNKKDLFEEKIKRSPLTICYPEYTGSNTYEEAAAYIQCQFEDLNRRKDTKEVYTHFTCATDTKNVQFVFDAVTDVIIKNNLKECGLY
# HCMV UL50-53 inh = inhibitors of HCMV UL50-UL53 interaction, biochemical, HTRF; AID 1918969, 2023; inhibition, % (test concentration not listed); 0.15% of 190,000 active; normalized percent inhibition;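 active = both replicates at 50% or more, plus weaker picks with an unusually low signal ratio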;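 also: stock transfer was 100 nL into about 20 µL; 0% = negative control wells and 100% = wells with untagged competitor protein; inactives centre near -12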
# Sa growth 42C = S. aureus growth inhibition at 42 and 30 °C, primary screen, LtaS inhibitor project, RN4220, two temperatures | OD600, 20 h, 42 °C; stronger effect = lower value | relative growth, % (concentration not given with the values) | 0.53% of 170,000 active | AID 720641, 2013;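 active = growth at 42 °C up to 50% and 20 or more points under that at 30 °C, or under 10% at both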;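 also: 300 nL library stock went into each well; scaled to the means of positive and negative controls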
# Sa growth 42C second temp = recorded beside Sa growth 42C, whose call it bears; relative growth, %; measured here: growth at 30 °C;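 optical density after 20 h as mean of two plates; 100% = untreated growth and lower means inhibition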
# Starred values were filed as active, the others as inactive; · = no result given; & = joins results of further samples.
1: Cc1ccc(N2C(=O)N(Cc3ccc(C(C)(C)C)cc3)c3ccccc3S2(=O)=O)cc1F
2: CCCCOC(=O)c1ccc(O)cc1
3: CCC(=O)Nc1nc2ccc(NS(=O)(=O)c3ccc(NC(C)=O)cc3)cc2s1
4: Cc1ccc(Oc2ncccc2NC(=O)CSc2ccccn2)c2c1CCC2
5: CCOC(=O)C(C#N)C1(O)C(=O)c2ccccc2C1=O (configuration not stated)
6: Cc1nc(NCc2ccc3c(c2)OCO3)nc2c1C(=O)c1ccccc1-2
7: COc1ccc(-c2cc(C(F)(F)F)n3ncc(C(=O)Nc4cccc(O)c4)c3n2)cc1
8: COc1ccc(C2C(C(=O)OC3CCCCC3)=C(C)NC3=C2C(=O)CCC3)c(OC)c1OC (configuration not stated)

entry no.	1	2	3	4	5	6	7	8
GIV-Gai inh	98	·	100	102	129	103	105	101
HCMV UL50-53 inh	-11	-10&-17	-9	0	-61	-38	·	-31
Sa growth 42C	·	103	·	82	114	95	109	87
Sa growth 42C second temp	·	87	·	90	71	87	104	80

9: COc1ccc(N2CCN(C(=O)c3cc(-c4ccc(C)c(F)c4)on3)CC2)cc1
10: N#Cc1ccc(NC(=O)C2CC(c3ccc(F)cc3)=NO2)cc1 (configuration not stated)
11: Cc1ccc(-c2noc(-c3ccccc3NC(=O)C3CC(=O)N(c4ccccc4C)C3)n2)cc1 (configuration not stated)
12: COc1ccccc1N1CCSC1C(N)=O (configuration not stated)
13: O=C(SCc1cccs1)c1csc(C2COc3ccccc3O2)n1 (configuration not stated)
14: CC(C)C(=O)N1CCN(c2ccccc2N)CC1
15: CCOC(=O)c1cc2c(=O)n3ccccc3nc2n(C)c1=NC(=O)c1cc2ccccc2o1
16: COC(=O)c1c(NS(=O)(=O)c2cccs2)sc2c1CCCC2

entry no.	9	10	11	12	13	14	15	16
GIV-Gai inh	105	105	101&106	·	102	·	109	101
HCMV UL50-53 inh	8	1	14&-3	-6	7	11	·	-10
Sa growth 42C	85	77	112	112	91	90	98	103
Sa growth 42C second temp	95	87	98	90	95	95	96	87

# Copied from above, entries 14 to 16
14: CC(C)C(=O)N1CCN(c2ccccc2N)CC1
15: CCOC(=O)c1cc2c(=O)n3ccccc3nc2n(C)c1=NC(=O)c1cc2ccccc2o1
16: COC(=O)c1c(NS(=O)(=O)c2cccs2)sc2c1CCCC2

entry no.	14	15	16
GIV-Gai inh	·	109	101
HCMV UL50-53 inh	11	·	-10
Sa growth 42C	90	98	103
Sa growth 42C second temp	95	96	87

# Next compounds
17: COc1ccc(-n2cc(C(=O)OCc3ccc(Cl)cc3)c3ccccc3c2=O)cc1
18: CCc1ccc(NC(=O)CSc2nc3c(sc4ccccc43)c(=O)n2CCN(CC)CC)cc1
19: CCN1CCN(C(=O)c2c[nH]n3c(=O)c(Cc4cccc(C)c4)c(C)nc23)CC1
20: Cc1csc2nc(CSc3nnc(-c4ccccc4Cl)n3C3CCCC3)cc(=O)n12
21: CCS(=O)(=O)c1ccc(-c2ccc(NC(=O)c3ccc(C)cc3)cc2)nn1
22: O=C(NN=C1CCCC1)C1CCN(S(=O)(=O)c2cccs2)CC1
23: CC(C)(C)NC(=O)CCSc1nnc(-c2ccccc2)o1
24: O=C1CCCC2=C1C(c1ccccc1C(F)(F)F)c1c(ccc3ncccc13)N2 (configuration not stated)

entry no.	17	18	19	20	21	22	23	24
GIV-Gai inh	110	102	101	·	106	·	104	·
HCMV UL50-53 inh	·	·	-4	0	-9	-3	-17	-31
Sa growth 42C	103	187	93	94	·	107	104	96
Sa growth 42C second temp	101	81	80	86	·	100	77	49

# Laid out differently: results already given.
# The line under a structure holds: GIV-Gai inh, HCMV UL50-53 inh, Sa growth 42C, Sa growth 42C second temp
[20] Cc1csc2nc(CSc3nnc(-c4ccccc4Cl)n3C3CCCC3)cc(=O)n12
 : ·, 0, 94, 86
[21] CCS(=O)(=O)c1ccc(-c2ccc(NC(=O)c3ccc(C)cc3)cc2)nn1
 : 106, -9, ·, ·
[22] O=C(NN=C1CCCC1)C1CCN(S(=O)(=O)c2cccs2)CC1
 : ·, -3, 107, 100
[23] CC(C)(C)NC(=O)CCSc1nnc(-c2ccccc2)o1
 : 104, -17, 104, 77
[24] O=C1CCCC2=C1C(c1ccccc1C(F)(F)F)c1c(ccc3ncccc13)N2 (configuration not stated)
 : ·, -31, 96, 49

# (listing goes on)
25: CCC(c1nnc(SC(C)C(=O)NCc2ccc3c(c2)OCO3)n1Cc1ccccc1)N(C)C (configuration not stated)
26: COc1ccc(NC(=O)CC2C(=O)N(c3cccc(C)c3)C(=O)N2C2CCCCC2)cc1 (configuration not stated)
27: CC(C)(C)C(=O)C(Oc1ccc(Cl)cc1)n1cnnc1 (configuration not stated)
28: Nc1c(-c2nc(-c3ccccc3Cl)no2)nnn1-c1ccccc1C(F)(F)F
29: COc1ccc(-c2cn(-c3ccc(C)cc3C)c(=S)[nH]2)cc1OC
30: Oc1cccc(NC(=S)Nc2cccnc2)c1
31: Cc1cc(C)nc(SCC(=O)OCC(=O)N2CCc3ccccc32)n1
32: CCCSc1ncc(Cl)c(C(=O)Nc2ccc(CC)cc2)n1

entry no.	25	26	27	28	29	30	31	32
GIV-Gai inh	·	105	·	103	112	·	·	104
HCMV UL50-53 inh	-19	-11	-11	·	·	-10	-8	1
Sa growth 42C	88	112	76	112	79	88	92	82
Sa growth 42C second temp	98	89	87	98	86	80	98	70

33: CC(C)C(=O)Nc1ccccc1OC(F)F
34: Cn1c(=O)c(C2=NS(=O)(=O)c3ccccc3N2)c(O)c2ccccc21
35: C[C@@H](NCCc1ccc(O)cc1)[C@@H](O)c1ccc(O)cc1
36: C=CCN(CC=C)C(=O)c1cccs1
37: Cc1cc(N2CCN(C/C=C/c3ccccc3)CC2)n2ncc(-c3ccc(F)cc3)c2n1
38: N/C(CN1CCSCC1)=N\OC(=O)c1cccs1
39: COc1cc(OC)c(NC(=O)c2cc(CN3CCOCC3)on2)cc1Cl
40: CC(SCc1cn2cc(Cl)ccc2n1)C(=O)O (configuration not stated)

entry no.	33	34	35	36	37	38	39	40
GIV-Gai inh	·	101	101	·	103	107	103	·
HCMV UL50-53 inh	13	-17	9	-9	-15	-32	·	-12
Sa growth 42C	92	100	·	103	·	99	89	104
Sa growth 42C second temp	95	113	·	91	·	89	92	94
